# Vaccinia Venus = inhibitors of vaccinia virus (Venus reporter); AID 720580; Vaccinia virus Venus reporter expression, fluorescence; Potency, µM (titrated, usually from 36.5 µM), inactives show at the top dose activity change, negative = inhibition, usual class: inhibitors; hit rate 0.46% among 330,000; active means well fitted inhibition curve with a large enough effect; inconclusive means small, poorly fitted or top-dose-only effect; inactive means no such curve, though single readings can be large or run the other way; tested in A549 cells; also: nearly all actives have a fitted effect of over 30% in size; inactives centre near -10
# Vaccinia mCherry = inhibitors of vaccinia virus infection (mCherry reporter signal); Vaccinia virus mCherry reporter infection, fluorescence; about a quarter of the inactives have no number; Potency, µM (doses to about 36.5 µM), for the others: top-dose activity change, negative = inhibition, usual class: inhibitors; hit rate 0.63% among 310,000; active = well fitted inhibition curve with a large enough effect; inconclusive = small, poorly fitted or top-dose-only effect; inactive = no such curve, though single readings can be large or run the other way; tested in A549 cells; also: nearly all actives have a fitted effect of over 35% in size; inactives centre near -10
# The depositor's hits bear a star; i = inactive; ? = inconclusive; · = not tested or not shown; [ ] = remark or other dose. % is scaled to controls: 0 for no effect and ±100 for the full control effect; potency is read from the fitted curve at half-maximal effect.
SMILES,Vaccinia Venus,Vaccinia mCherry
Cc1ccc(O)c(N=Cc2cc(Cc3ccccc3)cc([N+](=O)[O-])c2O)c1,-19.2%,-20.4%
Cc1cc(=O)oc2cc(OCC(=O)NC3CC(C)(C)NC(C)(C)C3)ccc12,-3.9%,-9.5%
CCOc1ccc(-c2cc(NC(=O)c3cccc(Cl)c3)c(C(=O)OC)s2)cc1,0.7%,-8.8%
COc1cccc2c(=O)c3c([nH]c12)OC(C)(C)C3,-13.6%,-10.9%
Cc1ccc(NS(=O)(=O)c2c(C)noc2C)cc1,-1.6%,-2.5%
COc1ccc(NCc2cccn2-c2nnc(N3CCCCC3)s2)cc1OC,-2.4%,-3.1%
CCCSC1=C(C#N)C(c2cccs2)CC(=O)N1 (centres undefined),-10.1%[7.34 µM],i[7.34 µM]
CCCOc1ccc(C(NC(=O)CC(C)C)NC(=O)CC(C)C)cc1OC,?,-6.2%
CC(C)C(c1nnnn1CCc1ccccc1)N1CCN(C(=O)c2ccco2)CC1 (centres undefined),-8.2%,i
CN(Cc1ccccc1)C(=O)c1[nH]cnc1C(=O)N[C@@H](Cc1ccccc1)C(=O)OC(C)(C)C,-5.6%,i
CSCC[C@H](NC(=O)c1ccc(OCC2CCCO2)cc1)c1nc2ccccc2[nH]1 (some centres undefined),-4.1%,-14.7%
O=C(COC(=O)Cc1ccsc1)Nc1ccc(Br)cc1F,1.0%,-10.6%
Cc1ccc(-c2csc(N=C(N)N)n2)c(C)c1,-4.9%,-16.7%
CN(C)S(=O)(=O)c1cccc(NC(=O)COC(=O)CCOc2ccccc2)c1,-8.4%,7.1%
O=C(C1CC1)N1CCc2cc(Br)cc(S(=O)(=O)NCCN3CCOCC3)c21,?,i
CCCNC(=O)CSc1nc2ccccc2c(=O)n1CCC,-13.1%,-13.5%
Clc1ccc(-c2nc(C3CCCCC3)no2)cc1,7.9%,8.5%
O=C(Nc1ccc(NC(=O)C2CC2)cc1)c1ccco1,-4.6%,8.9%
COc1ccccc1NC(=O)NNC(=O)c1ccc2ccccc2c1,-5.6%,-4.8%
CCCCN(C(=O)COC(=O)c1ccc(C)s1)c1c(N)n(CCC)c(=O)[nH]c1=O,-14.5%,-12.2%
CCCS(=O)(=O)NC(=O)C1(C)CCN(C(=O)c2cccc(C)c2C)C1 (centres undefined),-7.0%,i
CC(C)[C@@H](N)C(=O)NC[C@H]1O[C@@H](n2cnc3c(N)ncnc32)[C@H](O)[C@@H]1O,-8.1%,-12.9%
OCCCn1c(C2CCCN2c2nc(-c3ccc(Cl)cc3)cs2)nc2cc(Cl)c(N3CCCCC3)cc21 (centres undefined),?,?
Cc1nn(C)c(C)c1N1C(=O)c2cccc3c(Br)ccc(c23)C1=O,8.9%,i
CCCCc1ccc(NC(=O)c2ccc(NS(C)(=O)=O)cc2)cc1,-9.3%,i

# Exported tab-delimited: part of the list above.
molecule	Vaccinia Venus	Vaccinia mCherry
COc1ccc(NCc2cccn2-c2nnc(N3CCCCC3)s2)cc1OC	-2.4%	-3.1%
CCCSC1=C(C#N)C(c2cccs2)CC(=O)N1 (centres undefined)	-10.1%[7.34 µM]	i[7.34 µM]
CCCOc1ccc(C(NC(=O)CC(C)C)NC(=O)CC(C)C)cc1OC	?	-6.2%
CC(C)C(c1nnnn1CCc1ccccc1)N1CCN(C(=O)c2ccco2)CC1 (centres undefined)	-8.2%	i
CN(Cc1ccccc1)C(=O)c1[nH]cnc1C(=O)N[C@@H](Cc1ccccc1)C(=O)OC(C)(C)C	-5.6%	i
CSCC[C@H](NC(=O)c1ccc(OCC2CCCO2)cc1)c1nc2ccccc2[nH]1 (some centres undefined)	-4.1%	-14.7%

# Profiles, looked up by structure. Screens in order: Vaccinia Venus	Vaccinia mCherry
# `CC(C)C(c1nnnn1CCc1ccccc1)N1CCN(C(=O)c2ccco2)CC1` (centres undefined) across the screens: -8.2%	i
# `CCCSC1=C(C#N)C(c2cccs2)CC(=O)N1` (centres undefined) across the screens: -10.1%[7.34 µM]	i[7.34 µM]
# `Cc1ccc(O)c(N=Cc2cc(Cc3ccccc3)cc([N+](=O)[O-])c2O)c1` across the screens: -19.2%	-20.4%
# `CC(C)[C@@H](N)C(=O)NC[C@H]1O[C@@H](n2cnc3c(N)ncnc32)[C@H](O)[C@@H]1O` across the screens: -8.1%	-12.9%
# `CCCCN(C(=O)COC(=O)c1ccc(C)s1)c1c(N)n(CCC)c(=O)[nH]c1=O` across the screens: -14.5%	-12.2%

# Returning to the listing, starting two compounds before the break.
SMILES,Vaccinia Venus,Vaccinia mCherry
Cc1nn(C)c(C)c1N1C(=O)c2cccc3c(Br)ccc(c23)C1=O,8.9%,i
CCCCc1ccc(NC(=O)c2ccc(NS(C)(=O)=O)cc2)cc1,-9.3%,i
Clc1ccc(-c2ccnc(-n3cccc3)n2)s1,-13.4%,i
O=c1c2ccccc2c(C=Nc2ccc(O)cc2)c(O)n1Cc1ccccc1,-9.8%,?
CC1CCN(C(=O)CN2c3ccc(C(C)C)cc3-c3ccccc3S2(=O)=O)CC1,-12.6%,-16.7%
CC1(C)CC(O)C(CCC(O)c2ccccc2)C(C)(C)N1 (centres undefined),-7.8%,·
CCOC(CNC(=O)c1ccc2c(c1)ncn2-c1ccccc1OC)OCC,-8.2%,-1.2%
COc1ccc(S(N)(=O)=O)cc1C(=O)OCC(=O)Nc1ncc(Cl)c(C)c1Cl,0.0%,i
O=C(c1ccc(Cl)cc1)C1CCCN(Cc2cccn2-c2cccnc2)C1 (centres undefined),-8.6%,-10.2%
CCc1nn2c(=O)cc(COC(=O)c3ccc(NC(=O)COc4ccc(C)cc4)cc3)nc2s1,-12.3%,-15.0%
COc1cc(C(=O)Nc2ccc3c(c2)OCO3)c([N+](=O)[O-])cc1OC,-14.1%,-10.2%
O=c1oc(Nc2cccc(Cl)c2)nc2ccccc12,-5.8%,i
O=C(c1ccco1)N1Cc2ccccc2-n2nncc2C1,-14.5%,-0.2%
COc1ccc(CN2CCCC(n3cc(C(=O)NC4CCCC4)nn3)C2)c(O)c1 (centres undefined),-17.9%,i
COc1ccc(NC(=O)CCS(=O)(=O)c2nc(-c3ccc4c(c3)OCO4)cc(C(F)(F)F)n2)cc1OC,0.0%,-7.6%
COc1ccc(-n2cc(CN(C)C(C)c3ccncn3)c(-c3cccc(F)c3)n2)cc1 (centres undefined),?,?
O=C(Nc1ccccc1)c1ccccc1NC(=O)C1CCCCC1,-17.2%,-20.0%
CCOc1ccc(C(C)NC(=S)NCc2ccc(F)cc2)cc1 (centres undefined),9.6%,i
CCOC(=O)N1CCN(C(=O)/C(=C/c2cccc3ccccc23)NC(=O)c2ccc(OC)c(OC)c2)CC1,-1.5%,-13.3%
Cc1cccc(C(=O)N(Cc2cccs2)C2CCS(=O)(=O)C2)c1 (centres undefined),-11.8%[7.34 µM],-4.1%[7.34 µM]
O=C(CCCCn1c(=O)c2ccccc2n(Cc2cccc(F)c2)c1=O)NCc1ccc2c(c1)OCO2,-15.5%,-19.6%
c1cncc(-c2nnc3n2CCC3)c1,-6.3%,-8.4%
O=C(c1cnc(N2CCOCC2)c2ccccc12)N1CCN(c2ccc(F)cc2)CC1,-16.5%,-21.5%
CC(=O)Nc1ccc(NC(=O)CN2C(=O)CCc3cc(S(=O)(=O)N4CCCCC4)ccc32)cc1,-3.5%,-11.8%
Cc1cccc(CSc2ncc(Cl)c(C(=O)Nc3nc4ccc(F)cc4s3)n2)c1,-12.2%,-15.1%
Cc1ccc(NC(=O)c2ccncc2)cc1[N+](=O)[O-],-15.4%,i
CCCN1C(=O)C(Cc2nc3ccccc3c(=O)n2CC)c2cc(Br)ccc21 (centres undefined),-4.2%[7.34 µM],-3.8%[7.34 µM]

# Shown with values under each structure: part of the list above.
# Second line of a record: Vaccinia Venus | Vaccinia mCherry
Clc1ccc(-c2ccnc(-n3cccc3)n2)s1
→ -13.4% | i
O=c1c2ccccc2c(C=Nc2ccc(O)cc2)c(O)n1Cc1ccccc1
→ -9.8% | ?
CC1CCN(C(=O)CN2c3ccc(C(C)C)cc3-c3ccccc3S2(=O)=O)CC1
→ -12.6% | -16.7%
CC1(C)CC(O)C(CCC(O)c2ccccc2)C(C)(C)N1 (centres undefined)
→ -7.8% | ·
CCOC(CNC(=O)c1ccc2c(c1)ncn2-c1ccccc1OC)OCC
→ -8.2% | -1.2%

# (more compounds)
SMILES,Vaccinia Venus,Vaccinia mCherry
O=C1C(=Cc2cccs2)C(=O)c2ccccc21,-9.7%,i
CCCCN(C(=O)Cc1cccc(F)c1)c1c(N)n(CCC)c(=O)[nH]c1=O,-3.2%,i
Cc1ccc(CNC(=O)C(=O)c2cn(CC(=O)N3CCCC3)c3ccccc23)cc1,-16.6%,-8.5%
O=C(N/N=C/C=C/c1ccccc1[N+](=O)[O-])c1cccs1,-16.6%,-1.9%
O=C(Nc1cccc(Cl)c1)Nc1nnc([C@@H]2C[C@H](O)[C@@H](CO)O2)s1,1.8%,0.0%
CCC(C)N1CCN(C(=O)c2cccs2)CC1 (centres undefined),-20.1%,·
CC[C@@H]1CCCCc2ccccc2[C@H](C(=O)C[C@H](O)CC(C)=O)OC1=O,-1.8%,i
CCCN(CCC)CCNc1c(NC2CCN(C(=O)OCC)CC2)c(=O)c1=O,-1.0%,17.7%
Cc1nnsc1C(=O)NC(C)C12CC3CC(CC(C3)C1)C2 (centres undefined),-18.6%,-24.6%
CN1CCN(C(=O)c2ccc3c(=O)n(-c4ccc(F)cc4)c(=S)[nH]c3c2)CC1,-3.1%,i
N#Cc1cccc(NC(=O)CC2CCCCC2)c1,-4.5%,-11.7%
CCc1ccccc1NC(=O)CN(c1ccc(OC)cc1)S(=O)(=O)c1c(C)n[nH]c1C,-26.4%,-23.4%
O=C(COc1ccc([N+](=O)[O-])cc1Cl)NCCc1ccccc1,-5.2%,i
Cc1cccc2cc3c(N)c(C(=O)N4CCCc5ccccc54)sc3nc12,?,?
C#CCNC(=O)C[C@@H]1C[C@@]2(C(=O)OC)CCCCC=C2N(Cc2cccc3ccccc23)C1=O,4.1%,8.3%
CC1CCCC(NS(=O)(=O)c2cc3c(cc2Cl)NC(=O)CO3)C1C (centres undefined),-0.8%,-7.0%
Cc1ccc(NC(=O)CS(=O)CC(=O)N(c2ccc(C)cc2)C(C)C(=O)NC2CCCCC2)cc1 (centres undefined),-29.6%,-12.0%
N#CCCN(C(=O)COC(=O)CCc1nc2ccccc2c(=O)[nH]1)c1ccc(F)cc1,-13.1%,-13.2%
OCC[C@@H]1C[C@H](O)[C@@H](O)[C@@]2(OCc3ccc4ccccc4c32)O1,5.5%,i
Cc1ccc(Cl)cc1N1CCN(C(=O)C2CCN(S(=O)(=O)c3cccnc3)CC2)CC1,?,?
CC1CCN(S(=O)(=O)c2cn(CC(=O)Nc3ccc(F)cc3)c(=O)c3ccccc23)CC1,1.4%,-12.1%
O=C(CNC(=O)c1ccc(Br)o1)NNC(=O)c1ccccc1,0.4%,-6.7%
CC(=O)c1cccc(NC(=S)NCCc2ccc(Cl)cc2)c1,-17.6%,-23.9%
Cc1ccc([N+](=O)[O-])cc1S(=O)(=O)Nc1cccc(S(=O)(=O)NC2=NCCC2)c1,-10.7%,-1.1%
Cc1cc(C)[n+](C)n1CC(O)Cn1c2ccccc2c2ccccc21 (centres undefined),-2.4%,8.7%
# (listing goes on)
SMILES,Vaccinia Venus,Vaccinia mCherry
Cc1cc(C)nc(/N=C(/NC(=O)Nc2ccc(Cl)c(Cl)c2)Nc2cccc(Cl)c2)n1,-7.0%,-14.5%
CCc1ccc2oc(-c3cc(NC(=O)C(C)C)cc(C)c3O)nc2c1,15.6%,1.5%
CC(NC(=O)COC(=O)c1ccc2c(=O)n3c(nc2c1)CCCCC3)c1ccc(F)cc1 (centres undefined),-5.7%,i
c1ccc(-c2nc(-c3ccncc3)n[nH]2)nc1,-8.1%,-4.8%
CCN(CC)c1cc(C)c2cc(NC(=O)/C=C/c3cc(OC)c(OC)c(OC)c3)ccc2n1,-5.5%[7.34 µM],0.8%[7.34 µM]
COc1ccc(NC(=S)NC2CCCCC2)cn1,-0.1%,-2.8%
OC1COC(O)C(O)C1O (centres undefined),-7.8%,-15.1%
CCOC(=O)C1CCN(c2ncnc3c2oc2ccc(Cl)cc23)CC1,-7.1%,·
Cc1ccc(S(=O)(=O)N2CCN(C(=O)c3ccc4c(c3)OCO4)CC2)cc1,-13.3%,-1.2%
Oc1ccc(/C(Cc2ccccn2)=N\Nc2ccccc2)c(O)c1,-21.5%,-26.7%
COC(=O)c1cc(NC(=S)N2CCN(c3ccccn3)CC2)cc(C(=O)OC)c1,2.2%,-5.3%
CCOC(=O)C1=C(CNCCc2ccc(Cl)cc2)NC(=O)NC1c1ccc2c(c1)OCO2 (centres undefined),?,·
Cc1cc(C)cc(C(O)c2ncc(-c3ccccc3Cl)[nH]2)c1 (centres undefined),-9.2%,5.9%

# Screens as filed in PubChem BioAssay.
